High-throughput results (PubChem)
D2 potentiator: Beta-Arrestin HTS for Positive Allosteric Modulators of the Human D2 Dopamine Receptor: Potentiators. DiscoveRx D2 beta-arrestin cells, luminescence, 90 min; 100% = 57 uM dopamine signal. AID 624464, 2012. D(2) dopamine receptor (Homo sapiens), P14416. hit rate 0.23% among 360,000. potentiation, % (no concentration beside the values); active = potentiation of 50% or more; inconclusive = 30% to 50%; inactive = 30% or less;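 further: compound concentration not given in the record; tested on top of an EC20 dose of dopamine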
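PathHunter D2 cells, attached overnight at 37 deg C, received compound in DMSO plus dopamine at EC20 (50 nM final) for 90 min at 37 deg C. Beta-arrestin recruitment was read as luminescence after 1 h with detection reagent at ambient temperature.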
D2 agonist: Beta-Arrestin HTS for Positive Allosteric Modulators of the Human D2 Dopamine Receptor: Agonists | D(2) dopamine receptor (Homo sapiens), P14416 | DiscoveRx PathHunter D2 beta-arrestin, luminescence, 90 min; 100% = 57 uM dopamine signal | activation, % (no concentration beside the values) | hit rate 0.084% among 360,000; in the data active = activation above about 40%; inconclusive = about 15% to 40%; inactive = below about 15%; further: compound concentration not given in the record; the text of the record calls up to 30% inactive
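DiscoveRx PathHunter D2 beta-arrestin cells (2,100/well) attached overnight, then compound-stimulated 90 min at 37 C in HBSS/10 mM HEPES/0.1% Tween-20 buffer; beta-galactosidase complementation read by luminescence after 1 h at ambient temperature. Dopamine 57 uM final (EC100) as control.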
PINK1 expr mod: A Quantitative High throughput Screen to Identify Chemical Modulators of PINK1 Expression. PINK1 immunofluorescence, high-content cytometry, 24 h. Potency, µM (top dose mostly 76.6 µM), without a hit: at the top dose activation (PINK1 increase), actives largely listed as activators. hit rate 0.2% among 410,000. AID 624263, 2012; active = well fitted activation curve with a large enough effect; inconclusive = small, poorly fitted or top-dose-only effect; inactive = flat fitted curve, though single readings scatter; cell line not stated here;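 further: potency means the concentration at half of the fitted maximal effect; % of control where 0% means no effect; nearly all actives have a fitted effect of over 65% in size; a mitochondrial uncoupler was the plate control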
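Decision-based qHTS: stable cells, 24 h exposure to five compound concentrations, CCCP as control. Fixed cells stained for PINK1 plus nuclear, mitochondrial and cell markers, cytometer read.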
TRPML1 blocker: qHTS for Inhibitors of the Human Mucolipin Transient Receptor Potential 1 (TRPML1) | Mucolipin-1 (Homo sapiens), Q9GZU1 | TRPML1-inducible cells, Ca2+ dye fluorescence, FDSS; hits give low values; inhibition of EC80 agonist-evoked calcium signal | activity change, negative = inhibition, % (test concentration not listed) | hit rate 0.02% among 390,000 | AID 624415, 2012; in the data active means activity change below about -50%; inconclusive means about -30% to -50%; inactive means above about -30%;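 further: stimulus is agonist 54-4 at its EC80 concentration; on the % scale 0 is the no-effect control and ±100 the full control effect; compound concentration not given in the record; the text of the record puts the active cut at -80%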
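TRPML1-DL cells, Tet-induced overnight (~16 h, 37 °C) at 1,500 cells/well, were loaded with Ca8 no-wash dye plus quencher for 45-90 min at room temperature. Compounds were pinned during FDSS kinetic reading; agonist 54-4 at EC80 (4 uM final) then added.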
TRPML1 ag: qHTS for Agonists of the Human Mucolipin Transient Receptor Potential 1 (TRPML1); Mucolipin-1 (Homo sapiens), Q9GZU1; TRPML1-expressing cells, Ca2+ dye fluorescence, FDSS; host cell line not named in the record; reference of the full effect not given here; activation, % (concentration not given with the values); hit rate 0.12% among 410,000; in the data active = activation above about 50%; inconclusive = about 30% to 50%; inactive = below about 30%; further: 0% is about no effect; the text of the record puts the active cut at 80%
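Cells: TRPML1-DL, 1X Tet inducer, ~16 h at 37 degrees C/5% CO2. Dye: ABD Ca8 no-wash + quencher, 45-90 min RT. Read: 10 s baseline, compound add, 110 s agonist phase; 54-4 EC80 (4uM final), 110 s antagonist phase.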
Six1-Eya2 inh: qHTS Assay for Inhibitors of the Six1/Eya2 Interaction; activity change, % (concentration not given with the values); hit rate 0.56% among 360,000; AlphaScreen GST-Six1/His-Eya2 binding, biochemical; hits give low values; control for the full effect not named in the record; in the data active = activity change below about -65%; inconclusive = about -30% to -65%; inactive = above about -30%; further: on the % scale 0 is the no-effect control and ±100 the full control effect
Target sequence (O00167 whole entry, looked up): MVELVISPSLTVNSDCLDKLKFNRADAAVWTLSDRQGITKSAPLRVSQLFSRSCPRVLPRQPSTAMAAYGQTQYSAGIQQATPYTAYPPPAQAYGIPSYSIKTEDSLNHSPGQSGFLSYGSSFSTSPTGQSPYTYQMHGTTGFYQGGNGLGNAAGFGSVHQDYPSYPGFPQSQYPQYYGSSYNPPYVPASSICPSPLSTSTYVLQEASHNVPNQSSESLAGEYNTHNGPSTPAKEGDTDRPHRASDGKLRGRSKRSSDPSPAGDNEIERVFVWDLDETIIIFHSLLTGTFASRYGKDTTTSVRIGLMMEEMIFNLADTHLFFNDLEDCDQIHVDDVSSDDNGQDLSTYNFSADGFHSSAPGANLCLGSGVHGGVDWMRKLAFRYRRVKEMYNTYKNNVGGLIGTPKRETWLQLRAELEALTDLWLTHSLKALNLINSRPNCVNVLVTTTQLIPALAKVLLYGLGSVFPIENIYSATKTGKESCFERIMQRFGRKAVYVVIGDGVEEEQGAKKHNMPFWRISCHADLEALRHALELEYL
Target sequence (Q15475 whole entry, looked up): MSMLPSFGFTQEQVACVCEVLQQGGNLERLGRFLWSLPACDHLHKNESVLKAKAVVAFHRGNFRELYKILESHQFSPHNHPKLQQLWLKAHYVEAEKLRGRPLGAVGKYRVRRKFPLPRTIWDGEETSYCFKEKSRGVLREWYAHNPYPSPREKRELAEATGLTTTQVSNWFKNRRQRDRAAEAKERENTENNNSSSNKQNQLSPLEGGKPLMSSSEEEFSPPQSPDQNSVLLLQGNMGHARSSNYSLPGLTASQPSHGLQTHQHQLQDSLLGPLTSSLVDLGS
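Six1/Eya2 binding was read as AlphaScreen signal after compounds were pinned into GST-Six1 plus His-tagged Eya2 (5X stock 250/500 nM) in pH 8.0 Tris/NaCl/TCEP buffer, beads added, then incubated 1 h, 37 C, dark.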
Starred values were filed as active, the others as inactive; ? = inconclusive; · = no result given; & = joins results of further samples; [ ] = dose if it differs, or a comment.

SMILES | D2 potentiator | D2 agonist | PINK1 expr mod | TRPML1 blocker | TRPML1 ag | Six1-Eya2 inh
Cc1c(C(=O)O)cccc1-n1c(C)cc(/C=N/Nc2ccc([N+](=O)[O-])cn2)c1C | -7 | -4.0 | 2.6% | · | · | -17
COc1cc(C(=O)NCC(=O)OCC(=O)c2cccc3ccccc23)cc(OC)c1OC | 14 | -5.3 | -0.2% | -2 | 0.0 | -2
COc1ccc(-n2c(-c3ccccc3)nnc2-c2ccc(Cl)cc2)cc1 | -7 | -1.5 | 1.2% | 67 | -0.2 | -11
O=C(Cc1ccccc1)NCc1ccccn1 | -13 | 0.9 | -1.0% | 13 | 0.2 | 11
NC(=S)n1[nH]c(-c2ccc([N+](=O)[O-])cc2)c(N=Nc2cccc([N+](=O)[O-])c2)c1=O | -2 | -0.8 | ? | -5 | 0.9 | -1
C=CCc1ccc(OCCCCN2CC(C)CC(C)C2)c(OC)c1 (stereo unspecified) | -6 | -4.8 | 4.1% | -5 | 0.2 | -29
COc1ccc(Nc2nnc(SCC(=O)NC3CCCC3)s2)cc1 | -14 | -2.7 | -1.0% | 18 | 0.1 | -23
COc1ccc(/C=C(\NC(=O)c2ccc(OC)cc2)C(=O)N2CCCCC2)cc1 | -3 | -2.6 | 0.1% | -2 | 0.1 | 5
O=C(COC(=O)c1ccc([N+](=O)[O-])o1)Nc1nc2ccccc2s1 | 5 | ? | 3.0% | -8 | 1.2 | 5
CNc1nc(Cl)nc(NC(C)(C)C)n1 | -27 | -1.9 | -3.5% | 23 | -0.3 | 0
CCCN(CCC)CCCNC(=O)Cn1cnc2sc(C)c(S(=O)(=O)N3CCOCC3)c2c1=O | -1 | -1.3 | 2.2% | 31 | -0.1 | 0
Cc1ccc(CN(Cc2ccco2)C(=O)c2oc3cc(Br)ccc3c2C)cc1 | · | · | 5.3% | 0 | -0.4 | ·

Entries of single compounds from above:
`O=C(Cc1ccccc1)NCc1ccccn1` is entered as D2 potentiator = -13; D2 agonist = 0.9; PINK1 expr mod = -1.0%; TRPML1 blocker = 13; TRPML1 ag = 0.2; Six1-Eya2 inh = 11
`COc1ccc(-n2c(-c3ccccc3)nnc2-c2ccc(Cl)cc2)cc1` is entered as D2 potentiator = -7; D2 agonist = -1.5; PINK1 expr mod = 1.2%; TRPML1 blocker = 67; TRPML1 ag = -0.2; Six1-Eya2 inh = -11

Returning to the listing; the 2 compounds before the break are reprinted first.
SMILES | D2 potentiator | D2 agonist | PINK1 expr mod | TRPML1 blocker | TRPML1 ag | Six1-Eya2 inh
CCCN(CCC)CCCNC(=O)Cn1cnc2sc(C)c(S(=O)(=O)N3CCOCC3)c2c1=O | -1 | -1.3 | 2.2% | 31 | -0.1 | 0
Cc1ccc(CN(Cc2ccco2)C(=O)c2oc3cc(Br)ccc3c2C)cc1 | · | · | 5.3% | 0 | -0.4 | ·
CC12CN(Cc3ccccc3)CC(C)(CN(Cc3ccccc3)C1)C2=NO | -3 | -2.2 | -2.3% | -4 | 0.0 | 9
Cc1ccc(NS(=O)(=O)c2sc3ccc(Cl)cc3c2C)cc1 | -2 | 2.7 | 3.5% | -24 | -0.3 | -2
c1ccc(CCNc2ncnc3scc(C4COc5ccccc5O4)c23)cc1 (stereo unspecified) | 12 | 1.7 | 1.0% | 17 | 0.8 | -16
Cc1noc2ncnc(Sc3ccccc3Cl)c12 | -12 | 1.2 | 1.1% | 10 | -0.2 | -1
O=C(NCc1ccccn1)c1ccc(CS(=O)(=O)Cc2ccc(Cl)cc2)o1 | 15 | 1.5 | -0.7% | 9 | -0.6 | 5
CCOC(=O)c1ccc2[nH]c3c(c2c1)CCCC3C(=O)OCC (stereo unspecified) | -4 | -0.7 | 0.2% | 8 | 1.9 | -10
c1cn2c(-c3ccoc3)cncc2n1 | -5 | -2.8 | 0.4% | · | 0.3 | -6
Cc1cccc2cc(/C=C/C(=O)c3ccco3)c(Cl)nc12 | -5 | -3.6 | 0.8% | 4 | 0.6 | -2
CC1CCN(Cc2nnnn2CCCC(=O)N(C)C2CCOC2)CC1 (stereo unspecified) | -10 | -2.1 | -0.4% | -13 | -0.5 | 5
CCCCCCC[C@@H](C/C=C/CCC(=O)N(C)C/C(=C/Cl)C/C(=C\C(=O)N1C[C@H](O)CC1=O)OC)OC | · | 1.1 | -1.2% | 50 | -0.6 | -7
Cc1n[nH]c(C)c1CN(C)C(=O)c1cc(COc2ccc(F)c(F)c2)on1 | -22 | -1.5 | 1.6% | -9 | -0.1 | -1
Cc1ccc([C@@H]2[C@@H]3C(=O)N(C)C(=O)[C@@H]3[C@]3(C)C(=O)N(Cc4ccccn4)CC(=O)N23)o1 | -1 | -2.1 | 1.7% | 2 | 0.0 | 1

Given with two lines to a compound: 4 of the compounds above.
Order of results: D2 potentiator	D2 agonist	PINK1 expr mod	TRPML1 blocker	TRPML1 ag	Six1-Eya2 inh
Cc1noc2ncnc(Sc3ccccc3Cl)c12
 : -12	1.2	1.1%	10	-0.2	-1
O=C(NCc1ccccn1)c1ccc(CS(=O)(=O)Cc2ccc(Cl)cc2)o1
 : 15	1.5	-0.7%	9	-0.6	5
CCOC(=O)c1ccc2[nH]c3c(c2c1)CCCC3C(=O)OCC (stereo unspecified)
 : -4	-0.7	0.2%	8	1.9	-10
c1cn2c(-c3ccoc3)cncc2n1
 : -5	-2.8	0.4%	·	0.3	-6

Later entries
SMILES | D2 potentiator | D2 agonist | PINK1 expr mod | TRPML1 blocker | TRPML1 ag | Six1-Eya2 inh
NNC(=O)COc1cccc(Oc2ccccc2)c1 | -7 | -2.6 | -0.4% | -10 | -0.3 | 4
COC(=O)/C(=C\c1ccc([N+](=O)[O-])cc1)NC(=O)c1ccccc1 | 1 | 0.9 | -2.6% | -7 | 1.7 | -25
Cc1ccc(NC(=O)c2ccc(OC(=O)COc3ccc(Cl)c(C)c3)cc2)cc1 | -4 | 2.5 | -1.8% | -8 | 1.4 | -1
O=C(Nc1ccc(N2CCN(C(=O)c3ccccc3)CC2)c(Cl)c1)c1ccc(Br)o1 | 4 | 11 | -16%[38.3 µM] | -8 | 1.7 | -5
O=C(CN1C(=O)C2CC=CCC2C1=O)Nc1nnc(SCc2c(Cl)cccc2Cl)s1 (stereo unspecified) | -2 | 1.6 | 0.2% | -5 | -0.2 | 3
NS(=O)(=O)c1ccc(CCNC(=O)c2ccc(NC3=NC4CS(=O)(=O)CC4S3)cc2)cc1 (stereo unspecified) | 1 | 5.7 | 4.8% | -17 | 0.0 | 7
O=C(NCCc1ccccc1)c1ccc(NC(=O)C2CCCCC2)cc1 | · | -0.3 | 8.0% | 0 | -0.8 | -5
Cc1cccc(N2CCN(Cc3cc(=O)oc4cc(C)ccc34)CC2C)c1 (stereo unspecified) | · | · | 0.7% | -9 | 0.4 | ·
O=C(Cn1cnc2c(nc3n2CCCCC3)c1=O)Nc1cccc(C(F)(F)F)c1 | -13 | -0.3 | 1.2%&3.2% | 8&1 | 1.0&-0.6 | 5
CCCCCC(O)CCc1n[nH]c(=S)n1-c1ccccc1 (stereo unspecified) | 5 | -0.3 | 10.0% | 3 | 1.1 | 6
N#Cc1ccc2c(=O)n(-c3ccccc3)sc2c1 | · | -6.4 | -1.0% | · | · | 8
O=S1(=O)CC(N2CCOCC2)c2ccccc21 (stereo unspecified) | -12 | -3.5 | 3.3% | -9 | 3.6 | -1
C=CCn1c(SCc2c(C)noc2C)nc2ccccc2c1=O | -5 | 0.7 | 13%[38.3 µM] | -5 | 1.3 | 1
COc1ccc([N+](=O)[O-])cc1NC(=O)COC(=O)C=C(C)C | 0 | 1.0 | 4.1% | 10 | -0.6 | -4
O=S(=O)(c1ccc2ccccc2c1)N1C=CC(C(F)(F)F)=NCC1 | -12 | -1.5 | 0.8% | -7 | 2.1 | 3
CCC(C(=O)NCCCN1CCOCC1)n1c2ccccc2c2nc(=O)cc(C)n21 (stereo unspecified) | -12 | -4.4 | -0.8% | 17 | 0.3 | 2
COC(=O)c1nc(-c2ccc(C)cc2)[nH]c1C(C)(C)C | -10 | -3.9 | -0.7% | · | -0.1 | 9
Nc1ncccc1OCc1ccc(Cl)c(Cl)c1 | -8 | 0.1 | -0.1% | -16 | -0.4 | -19
CCOCCCn1c(=N)c(S(=O)(=O)c2ccccc2)cc2c(=O)n3cc(C)ccc3nc21 | 3 | 3.6 | ? | 19&0 | 2.1&3.0 | 12
Cc1c(NS(=O)(=O)c2cccc(C(=O)OCC(=O)c3ccc(Cl)cc3)c2)c(=O)n(-c2ccccc2)n1C | 10 | 0.4 | 0.3% | -11 | 1.3 | 0
CCCCOC(=O)C1C2CCC(O2)C1C(=O)OCC (stereo unspecified) | 8 | 4.5 | -0.3% | 17 | -0.1 | 3
c1cc(CNC23CC4CC(CC(C4)C2)C3)ccn1 | -4 | 1.9 | 2.8% | 0 | 0.9 | 4
OC(COc1cccc2ccccc12)CN1CCN(c2ccccc2Cl)CC1 (stereo unspecified) | -44 | -13 | 5.7% | -21 | 0.4 | -7
COc1ccccc1COCC(O)CN1CCCCC1CO (stereo unspecified) | 1 | -2.4 | -0.4% | 34 | 1.6 | 0
COc1ccccc1CNc1ncnc2cc(Cl)ccc12 | 2 | 1.2 | 4.6% | 7 | -1.0 | -1
COC(=O)c1ccc(NC(=O)CSc2ccc(-c3sc(-c4ccccc4)nc3C)nn2)cc1 | · | · | 0.9% | 8 | 0.7 | ·
C=CCCCCCCCCC(=O)Nc1c[nH]c(=O)[nH]c1=O | -9 | -1.8 | 2.4%[38.3 µM] | -4 | 0.6 | 4
O=C(CSc1cccc[n+]1[O-])NN(c1ccccc1)c1ccccc1 | -4 | -0.5 | -0.7% | -8 | 0.6 | 19
